Mtb growth – Mycobacterium tuberculosis H37Rv growth inhibition, cell based, confirmatory dose response (AID 1949); most inactive calls were filed without a number and no value below 0 was filed; inhibition, % at 10 µg/mL; hits with a dose series show IC50 in µg/mL; hit rate 1.6% among 100,000;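 active = confirmed in a dose series; inconclusive = about 50% or more but not retested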;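 also: bacteria grown 7 days with compound before Alamar blue readout; 0% = untreated bacteria and 100% = reference antibiotic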
Active calls of the source: *; i = inactive; ? = inconclusive. An excerpt, so the mix of outcomes need not match the whole.

SMILES	Mtb growth
COc1cc2c(cc1OC)C(C)N(S(=O)(=O)c1ccccc1)CC2 (stereo not drawn)	i
CCn1c(SCC(=O)Nc2nccs2)nnc1-c1cccc(N)c1	i
CC(C)(C)c1ccc(C(=O)Nc2cccc(I)c2)cc1	27%
O=C(Cn1c(NCCCO)nc2ccccc21)c1ccco1	i
CCCNC(=O)N1CCCC(C(N)=O)C1 (stereo not drawn)	i
Cc1cc2oc(C(=O)Nc3cccnc3)c(C)c2cc1C	i
N#C/C(=C/c1cccn1-c1ccc(C(=O)O)cc1)c1cccc(F)c1	i
COc1ccc(NC(=O)C2CCN(C(=O)c3ccc(Cl)cc3)CC2)c(OC)c1	i
NC(=O)c1cc(-c2cccs2)nc2ccccc12	i
C=CCNC(=O)c1cc(I)ccc1NC(=O)c1cccnc1	i
CCNC(=O)C1CCCN1S(=O)(=O)c1ccc(Cl)c(Cl)c1 (stereo not drawn)	i
COc1ccc(OCCCC(=O)Nc2ccc(Cl)cc2C)cc1	4%
OCCNCCCCCOc1ccc(I)cc1	i
COC(=O)C(C)(C)NC(=O)c1cccs1	i
COc1ccc(N2CC(C(=O)NCc3ccccc3)CC2=O)cc1 (stereo not drawn)	i
Cc1ccc(C)c(NS(=O)(=O)c2ccc(NS(=O)(=O)c3ccc(Br)cc3)cc2)c1	3%
Cn1ncc([N+](=O)[O-])c1C(=O)Nc1cc(Cl)ccc1Cl	i
CCOc1ccc(NS(=O)(=O)c2ccc(OC)c(C)c2)cc1	i
COc1ccc(Cl)cc1NC1=NS(=O)(=O)c2ccccc21	i
Nn1c(SCC(=O)OC2CCCCC2)nnc1-c1ccccc1	i
Cc1nn(CC(O)c2ccccc2)c(C)c1Br (stereo not drawn)	4%
CCOc1ccccc1C(=O)Nc1ccc2c(c1)C(=O)NC2=O	0%
CCOc1ccccc1N(CC(=O)N1CCCCCC1)S(C)(=O)=O	i
COc1cc(C)c(S(=O)(=O)N2CCc3ccccc3C2)cc1C	i
Cc1c(C(=O)Nc2ccccc2)sc2ncn(CC(=O)N3CCOCC3)c(=O)c12	i

Following part
SMILES	Mtb growth
CCOc1ccc(CN2CCNC(=O)C2CC(=O)O)cc1 (stereo not drawn)	i
CCC(C)NC(=O)Cc1ccc(Br)cc1 (stereo not drawn)	i
O=C1Nc2ccc(S(=O)(=O)NCCC3=CCCCC3)c3cccc1c23	i
N#Cc1c(NC(=O)Cc2cccs2)sc2c1CCCCC2	i
O=C1NC(=Nc2ccccc2Br)SC1(CO)CO	i
O=C(CN1C(=O)c2cccc3cccc1c23)Nc1cccnc1	i
O=C(Nc1ccccc1Cc1ccccc1)C1CCCO1 (stereo not drawn)	i
Cc1ccc(-c2csc3ncnc(SCC(N)=O)c23)cc1	1%
Cc1ccc(NC(=O)CSc2nc3ccccc3c(=O)n2CCc2ccccc2)cc1	i
CCOc1ccc(OCC(=O)NC(C)c2ccccc2)cc1 (stereo not drawn)	i
O=C(O)COc1ccc(N2C(=O)CCC2=O)cc1	i
CC1CN(CCOc2ccc(F)cc2)CC(C)O1 (stereo not drawn)	i
CC(=O)c1ccc(NC(=O)NCc2ccc(Cl)cc2Cl)cc1	i
CC1(C)Cc2c(sc3nc(SCC(=O)c4ccccc4)[nH]c(=O)c23)CO1	10%
Cc1ccc(S(=O)(=O)N(CC(=O)N2CCOCC2)c2cc(Cl)ccc2C)cc1	i
O=C(Nc1nnc(SCc2ccccc2Cl)s1)c1ccccc1Cl	1%
NC1=NC(=O)C(CC(=O)Nc2ccccc2)S1 (stereo not drawn)	i
CCOc1cccc(N2C(=O)CC(n3cnc4ccccc43)C2=O)c1 (stereo not drawn)	i
Cc1ccc(OCC(=O)Nc2ccc3c(c2)Cc2ccccc2-3)cc1C	i
CC(c1ccccc1)n1c(C(F)(F)F)nc2ccccc21 (stereo not drawn)	i
COc1ccc(-c2noc(COc3ccc(Cl)cc3C)n2)cc1	i
O=C(c1ccccc1F)N1CCN(S(=O)(=O)Cc2ccccc2)CC1	i
C=CCn1c(SCC(=O)Nc2cc(Cl)ccc2OC)nnc1-c1ccc(Br)cc1	i
Nc1c(C(=O)NC23CC4CC(CC(C4)C2)C3)sc2nc3c(c(C(F)(F)F)c12)CCC3	i
CC(C)NC(=S)NC(=O)c1ccc(-c2ccccc2)cc1	0%

(continued)
SMILES	Mtb growth
O=C(COc1ccc(Br)cc1)N(Cc1ccc(Cl)cc1)C1CCS(=O)(=O)C1 (stereo not drawn)	3%
O=C(NCc1cccnc1)c1c(F)c(F)c(F)c(F)c1F	i
Cc1ccc(N2C(=O)CC(Sc3ccccc3C(=O)O)C2=O)cc1C (stereo not drawn)	i
COC(=O)c1cc2c(=O)n3ccccc3nc2n(C(C)C)c1=N	i
COC(=O)c1cccc(NC(=O)c2c(-c3ccccc3Cl)noc2C)c1	i
COCC(=O)NNC(=S)Nc1cccc(C)c1C	i
COc1ccc(S(=O)(=O)Nc2ccc(Br)cc2F)c(Cl)c1Cl	i
COc1cc(SC)ccc1C(=O)Nc1ccc(F)c(F)c1	i
CC(C)C12CN3CC(C(C)C)(CN(C1)C31C(=O)Nc3ccccc31)C2=O (stereo not drawn)	i
O=C(Nc1ccccc1F)C(Cc1ccccc1)C(=O)Nc1ccccc1F	i
COc1ccc(-c2nnc(OCC3CCCO3)c3ccccc23)cc1 (stereo not drawn)	i
O=C(Nc1ccccc1N1CCCC1)c1ccccc1	i
Clc1ccc(OCC#CCN2CCOCC2)cc1	i
O=C(Cn1nnc(-c2ccc3c(c2)OCO3)n1)N1CCOCC1	i
COc1ccc(C(=O)NC(=S)Nc2ccccc2N2CCCC2)cc1Cl	i
COc1ccccc1N1CCN(S(=O)(=O)c2ccccc2F)CC1	i
COC(=O)c1cc(-c2ccccc2)sc1NC(=S)Nc1ccncc1	i
O=C(NCc1ccc(F)cc1)c1cc(-c2cccs2)nc2ccccc12	i
CS(=O)(=O)N1CCN(C(=S)Nc2ccc([N+](=O)[O-])cc2)CC1	i
CC(C)c1ccc(C(=O)Nc2cccc(-c3nc4ncccc4o3)c2)cc1	i
CCc1ccc(OCC(=O)Nc2ccc(S(=O)(=O)N3CCc4ccccc43)cc2)cc1	1%
CCN(CC)S(=O)(=O)c1cccc(C(=O)Nc2ccccn2)c1	i
O=C1CCCc2nc(Nc3nc4ccccc4s3)ncc21	i
S=C(NCCc1ccccc1)N1CCC(Cc2ccccc2)CC1	2%
Cc1cccc(-c2cc(C(=O)NCCCN3CCOCC3)c3ccccc3n2)c1	i

Remaining list, next part:
SMILES	Mtb growth
CC(C)(C)c1ccc(Cn2nnc3ccccc3c2=O)cc1	1%
COc1ccc(NC(=O)C2=C(C)NC(=O)NC2c2ccccc2C)cc1 (stereo not drawn)	i
COc1ccc(C2(C(=O)NCc3ccco3)CCOCC2)cc1	1%
Nc1ncn(C(=O)c2cccc([N+](=O)[O-])c2)n1	i
COC(=O)c1cn(CC(=O)N2CCCCCC2)c2ccccc12	i
CCOc1ccc(OCC(=O)Nc2cc(C)c(Cl)cc2OC)cc1	i
Cc1nnc(SCC(=O)Nc2nc3c(s2)CC(C)CC3)s1 (stereo not drawn)	i
COc1ccc(-n2ncc3c(N4CCN(C)CC4)ncnc32)cc1	i
O=S(=O)(Nc1cc(Sc2cccc3cccnc23)c(O)c2ccccc12)c1ccccc1	0.18µg/mL*
O=c1c2ccccc2nc(CSc2ncnc3ccccc23)n1-c1ccccc1	i
CS(=O)(=O)N(Cc1ccccc1)c1ccccc1C(=O)NCc1ccccc1Cl	i
Cc1c(OS(C)(=O)=O)ccc2c1oc(=O)c1ccccc12	3%
COC(=O)C1=C(C)N(C)C(C)=C(C(=O)OC)C1c1ccccc1OCc1ccccc1	i
O=C(Nc1ccc(CN2CCCCC2)cc1)c1c(F)c(F)c(F)c(F)c1F	48%
Cc1cc(OCC(=O)NC2CCCCC2)cc(C)c1Cl	i
O=C(CN(C1CCCCC1)S(=O)(=O)c1ccc(F)cc1)NCc1ccco1	i
CC(=O)Oc1ccccc1C(=O)N(C1CCCCC1)C1CCCCC1	2%
Cc1ccc(CC(=O)Nc2ccc3c(c2)OCO3)cc1	i
COc1cccc(NC(=O)c2ccc(N(Cc3ccc(Cl)cc3)S(C)(=O)=O)cc2)c1	i
COc1ccc(NC(=O)CSc2nc3c(c(C(F)(F)F)c2C#N)CCC3)c(OC)c1	32%
O=C(CC12CC3CC(CC(C3)C1)C2)NC(=S)Nc1ccc(Cl)c(-c2nc3ncccc3o2)c1	i
O=C(Nc1ccc(C(=O)N2CCCCC2)cc1)c1cccc(Br)c1	4%
CCC1CCCCN1C(=O)N(CC)CC (stereo not drawn)	i
C=CCn1c(NCc2ccccc2NS(=O)(=O)c2ccc(C)cc2)nc2ccccc21	4%
O=C(Nc1ccc([N+](=O)[O-])cc1)N1CCN(C/C=C/c2ccccc2)CC1	24%

Further records.
SMILES	Mtb growth
COC(=O)c1cc(Cl)cc([N+](=O)[O-])c1O	i
Cc1ccc2c(c1)CCCN2C(=O)c1csc(C)c1	i
Cc1c(NC(=S)NC(=O)c2cccc3c(Br)cccc23)cccc1C(=O)O	i
O=C(CSC1CC(=O)N(c2ccc(I)cc2)C1=O)Nc1ccc(F)cc1 (stereo not drawn)	i
S=c1[nH]nc(-c2cc3ccccc3o2)n1-c1ccccc1	i
COc1ccc(NC(=O)CSc2nc(-c3cccs3)cc(-c3ccsc3)c2C#N)cc1OC	i
COc1ccc(C(=O)Nc2cccc(Cl)c2Cl)cc1Br	i
COc1ccc(NC(=O)c2cc(I)ccc2Cl)c(OC)c1	?
COC(=O)c1ccccc1NC(=O)CCOc1ccc(OC)cc1	2%
O=S(=O)(Nc1ccccc1-c1ccccc1)c1ccccc1	9%
CSc1nc(NC(C)C)nc(N2CCOCC2)n1	i
Cc1ccc(-c2nnc(SCC(=O)Nc3cc([N+](=O)[O-])ccc3C)o2)cc1	i
O=C(CC1(O)C(=O)Nc2ccccc21)c1ccccn1 (stereo not drawn)	i
CCSc1ccccc1C(=O)Nc1ccc(F)cc1F	i
O=C(c1cc(-c2ccc(Cl)s2)nc2ccccc12)n1cnc2ccccc21	i
CC(=O)c1ccc(OCC(O)CN2CCN(c3cccc(Cl)c3)CC2)cc1 (stereo not drawn)	4%
O=C(NCC1CCCO1)C1CC(c2ccccc2O)=NO1 (stereo not drawn)	i
COC(=O)Cc1ccc(NC(=S)N2CCN(c3cc(Cl)ccc3C)CC2)cc1	i
O=C(O)c1cccc(NC(=O)c2ccc(Br)o2)c1	i
N#Cc1cccc(Oc2cccc(C(=O)OCc3ccccc3)c2)c1C#N	i
c1ccc(OCCCCn2nnc3ccccc32)cc1	2%
CCOC(=O)c1ccc(OCCOc2ccccc2C)cc1	i
CC(C)C(=O)Nc1ccc(C(=O)Oc2ccccc2)c(O)c1	<0.1µg/mL*
COc1cccc(C(=O)c2snc(Nc3ccc(F)cc3)c2N)c1	i
CC1(C)CC(=O)C2=C(C1)Nc1ccccc1N(C(=O)Cc1ccccc1)C2c1cccc([N+](=O)[O-])c1 (stereo not drawn)	0%

(cont.)
SMILES	Mtb growth
CCCn1c(-c2ccccc2Cl)n[nH]c1=S	i
O=C(CSc1n[nH]c(-c2ccccc2)n1)Nc1ccc(Br)cc1	40%
Cc1ccc(C(=O)CSc2nnc3ccc4ccccc4n23)cc1C	1%
Cc1cc(C)cc(C(=O)Nc2sc3c(c2C(N)=O)CCCC3)c1	1%
CC(C)C(=O)Nc1cccc(NC(=O)c2ccc(Cl)cc2Cl)c1	i
c1ccc(-c2ccccc2OCCn2cncn2)cc1	i
CCN(CC)S(=O)(=O)c1cc(C(=O)Nc2ccccn2)ccc1Cl	i
Cc1ccc(S(=O)(=O)N(C)c2c(C)ccc(S(=O)(=O)N(C)CCO)c2C)cc1	i
COC(=O)c1cc(OC)c(OC)cc1NC(=O)C(C)Oc1ccc(C(C)(C)C)cc1 (stereo not drawn)	i
COc1ccc(C(=O)NC(=S)N2CCOCC2)cc1Br	?
COc1ccc(CCNC(=O)c2ccc(COc3ccc(Br)cc3)cc2)cc1	i
COc1cccc(NC(=O)CN2CCCCC2)c1	i
CCC(C)(C)c1ccc(OCCCn2ccnc2)cc1	1.9µg/mL*
CCCCN1C(=O)C2Cc3c([nH]c4ccccc34)CN2C1=S (stereo not drawn)	i
O=C(Nc1cccc(Br)c1)C1CC1c1ccccc1 (stereo not drawn)	1%
COc1cc(C(=O)Nc2c(C)cc(C)cc2Cl)cc(OC)c1OC	i
CCCOc1ccc(C(=O)Nc2ccc(I)cc2C)cc1	i
CC(C)(C)S(=O)(=O)c1ccsc1	i
